KCNQ2 block: KCNQ2 potassium channel inhibitors, primary screen, cell-based, CHO-K1, FluxOR thallium flux, B-score (AID 2156). B-score at 10 µM. 20 min; active compounds read low; only compounds with negative scores are shown here; some inactives read as strong as hits. 310,000 tested, 1.1% active. Potassium voltage-gated channel subfamily KQT member 2 (Rattus norvegicus), O88943;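 active means fluorescence ratio B-score at most minus 3 library SDs, with starting brightness B-score within 2 library SDs, cut at about -5.5 in these data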
Target sequence (O88943 whole entry, looked up): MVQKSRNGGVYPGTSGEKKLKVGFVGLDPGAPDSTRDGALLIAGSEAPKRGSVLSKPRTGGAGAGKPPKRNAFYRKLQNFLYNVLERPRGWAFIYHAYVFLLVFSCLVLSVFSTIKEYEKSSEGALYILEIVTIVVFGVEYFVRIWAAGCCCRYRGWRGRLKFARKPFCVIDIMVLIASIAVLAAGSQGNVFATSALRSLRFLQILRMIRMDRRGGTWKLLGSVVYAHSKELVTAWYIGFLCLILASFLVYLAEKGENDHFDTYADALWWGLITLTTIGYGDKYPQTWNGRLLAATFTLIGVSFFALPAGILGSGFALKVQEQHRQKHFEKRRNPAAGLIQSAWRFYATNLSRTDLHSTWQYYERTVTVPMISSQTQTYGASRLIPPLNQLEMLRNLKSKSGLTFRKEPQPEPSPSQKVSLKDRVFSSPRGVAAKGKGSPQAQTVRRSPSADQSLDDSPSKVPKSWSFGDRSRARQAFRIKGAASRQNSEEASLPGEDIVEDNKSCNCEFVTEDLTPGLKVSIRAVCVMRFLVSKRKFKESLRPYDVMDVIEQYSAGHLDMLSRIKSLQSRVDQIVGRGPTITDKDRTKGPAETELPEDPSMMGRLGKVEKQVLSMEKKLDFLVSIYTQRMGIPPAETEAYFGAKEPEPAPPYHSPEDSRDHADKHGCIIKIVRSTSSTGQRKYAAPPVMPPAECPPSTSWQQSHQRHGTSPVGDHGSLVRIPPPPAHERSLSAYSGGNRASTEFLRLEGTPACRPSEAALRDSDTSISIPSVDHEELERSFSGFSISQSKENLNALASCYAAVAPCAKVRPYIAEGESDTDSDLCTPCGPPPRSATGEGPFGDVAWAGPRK
KCNQ2 block baseline: recorded beside KCNQ2 block, whose call it bears; B-score; measured here: initial fluorescence intensity artifact check;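 brightness before thallium and not channel activity; 0 = typical well and far values either way flag optical interference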
* marks the source's active call; other numbers are inactive results; i = inactive. Not all compounds are listed, so the mix of outcomes need not match the whole.

The opening 7 records, ahead of the listing:
Each structure is followed by: KCNQ2 block	KCNQ2 block baseline
Cc1cc(Cl)ccc1C(=O)C1CCCN(C(=O)c2ccsc2)C1 (stereo not drawn)
 : i	-0.06
Cc1ccc(C(C)(c2ccc(N)cc2)c2ccc(N)cc2)cc1
 : i	0.9
COc1ccc(C(=O)Nc2cccc(OC(=O)c3ccc(C)c(C)c3)c2)cc1
 : i	1.4
CC(C)(C)NC(=O)c1ccc2c(c1)N(CC(=O)N1CCN(c3ccccc3F)CC1)C(=O)C(C)(C)O2
 : i	-1.4
COC(=O)c1[nH]c2cccc(OC)c2c1NC(=O)CN1CC2(C)CC1CC(C)(C)C2 (stereo not drawn)
 : i	1.5
CCSC(=O)CCCCCCCCCCCO
 : i	-0.92
Cc1cc(CCC(=O)O)c(C)cc1CCC(=O)O
 : i	0.66

All compounds of this part, from the start:
Each structure is followed by: KCNQ2 block	KCNQ2 block baseline
Cc1cc(Cl)ccc1C(=O)C1CCCN(C(=O)c2ccsc2)C1 (stereo not drawn)
 : i	-0.06
Cc1ccc(C(C)(c2ccc(N)cc2)c2ccc(N)cc2)cc1
 : i	0.9
COc1ccc(C(=O)Nc2cccc(OC(=O)c3ccc(C)c(C)c3)c2)cc1
 : i	1.4
CC(C)(C)NC(=O)c1ccc2c(c1)N(CC(=O)N1CCN(c3ccccc3F)CC1)C(=O)C(C)(C)O2
 : i	-1.4
COC(=O)c1[nH]c2cccc(OC)c2c1NC(=O)CN1CC2(C)CC1CC(C)(C)C2 (stereo not drawn)
 : i	1.5
CCSC(=O)CCCCCCCCCCCO
 : i	-0.92
Cc1cc(CCC(=O)O)c(C)cc1CCC(=O)O
 : i	0.66
CCCCCOc1ccc(C(=O)OC(C)C(=O)NCc2ccco2)cc1 (stereo not drawn)
 : i	1.1
Cc1ccnc(NS(=O)(=O)c2ccc(NS(=O)(=O)c3cccs3)cc2)n1
 : i	-1.4
CC(=O)Nc1ccc(C(=O)CSc2nnc(Cc3ccccc3)o2)cc1
 : i	0.65
COCCC1CCCCN1C(=O)c1cccc(OC2CCN(C3CCCC3)CC2)c1 (stereo not drawn)
 : i	1.7
Cc1ccc(N/C(N)=N/c2nc(C(F)(F)F)cc(C(F)(F)F)n2)cc1
 : i	0.89
O=C(CSc1nc2ccccc2[nH]1)c1ccco1
 : i	-1.7
CCc1cc(-c2n[nH]c(=S)n2Cc2ccccc2)cs1
 : i	-0.29
COc1ccc(C(=O)Nc2nc3ccccc3[nH]2)cc1
 : i	-0.28
CC(O)c1nc2c(c(=O)n(C)c(=O)n2C)n1C (stereo not drawn)
 : i	-0.12
CCCn1c(=N)c(S(=O)(=O)c2ccc(F)cc2)cc2c(=O)n3cccc(C)c3nc21
 : i	0.2
O=C(c1ccc(Cl)cc1)C1CCCN(Cc2cnn(-c3ccccc3)c2)C1 (stereo not drawn)
 : i	0.96
COC(=O)c1c(NC(=O)CSc2nc3ccccc3c(=O)n2-c2ccccc2)sc(C)c1C
 : i	-2.9
COC(=O)Cc1c(C)c2cc(Cl)c(OC(=O)c3ccco3)cc2oc1=O
 : i	0.28
O=C(NCc1cc(C(F)(F)F)cc(C(F)(F)F)c1)C1CC(c2ccccc2F)=NO1 (stereo not drawn)
 : i	-1.1
O=c1[nH]c(-c2cccnc2)nc2sc(-c3ccccc3)cc12
 : i	3.4
COc1ccc(OC)c(CNC(=O)C2CCCN(S(=O)(=O)N3CCC(C)CC3)C2)c1 (stereo not drawn)
 : i	-2.5
Cc1ccc2nc(-c3ccncc3)[nH]c2c1
 : i	-0.31
Cc1cccc(-c2n[nH]c(=S)n2Cc2ccccc2)c1
 : i	-1.1
O=C(CC1CCCCC1)N1CCC(c2nc(-c3ccc(S(=O)(=O)N4CCCC4)cc3)no2)CC1
 : i	1.3
CC(CCc1ccccc1)NC(=O)c1ccc(NC(=O)c2cccc(Br)c2)cc1 (stereo not drawn)
 : i	-0.08
C=CCNC(=O)c1cccc(Br)c1
 : i	0.65
CC1CC(C)(C)N(C(=O)CN2C(=O)c3ccccc3C2=O)c2ccccc21 (stereo not drawn)
 : i	-0.49
O=C(O)c1ccc(NS(=O)(=O)c2cccc(S(=O)(=O)c3ccc(Cl)c(Cl)c3)c2)cc1
 : i	0.03

Four records picked at random from the list so far, as already listed:
Each structure is followed by: KCNQ2 block	KCNQ2 block baseline
Cc1cccc(-c2n[nH]c(=S)n2Cc2ccccc2)c1
 : i	-1.1
COC(=O)c1c(NC(=O)CSc2nc3ccccc3c(=O)n2-c2ccccc2)sc(C)c1C
 : i	-2.9
O=C(CC1CCCCC1)N1CCC(c2nc(-c3ccc(S(=O)(=O)N4CCCC4)cc3)no2)CC1
 : i	1.3
CC1CC(C)(C)N(C(=O)CN2C(=O)c3ccccc3C2=O)c2ccccc21 (stereo not drawn)
 : i	-0.49

More entries follow:
Each structure is followed by: KCNQ2 block	KCNQ2 block baseline
COc1cc2cc(C(=O)N3CCN(c4ccccc4OC)CC3)[nH]c2cc1OC
 : i	1.7
Cc1cc(NO)nc(-c2ccc(Br)cc2)n1
 : i	2.9
CCOC(=O)N1CCC(NC(=O)c2ccc3c(c2)N=C(CC)c2ccccc2S3)CC1
 : i	1.9
CC(c1ccco1)N(C(=O)c1ccccc1NS(=O)(=O)c1cccc([N+](=O)[O-])c1)c1ccccn1 (stereo not drawn)
 : i	-0.34
O=C(c1ccccc1Sc1ccc([N+](=O)[O-])cc1)N1CCCCC1
 : i	1.8
CCn1nc(C)c(CN2CCC(n3nccc3NC(=O)c3ccc4c(c3)OCO4)CC2)c1C
 : i	-0.43
CN(Cc1ccco1)S(=O)(=O)c1csc(C(N)=O)c1
 : i	0.45
CCOc1nc(-c2ccc(OC)cc2)ccc1-c1noc(-c2cc(OC)c(OC)c(OC)c2)n1
 : i	-2.5
Cc1ccc(C)c(NC(=S)NCC(c2cccnc2)N2CCOCC2)c1 (stereo not drawn)
 : i	-0.38
O=C(OCC#CCSc1nnc(-c2ccccc2)o1)c1cc2ccccc2o1
 : i	2.1
COc1cc(Cl)c(S(=O)(=O)N2CCN(Cc3ccc4c(c3)OCO4)CC2)cc1Cl
 : i	-2.2
CCSc1nsc(NC(=O)Nc2ccccc2OC)n1
 : i	-1.3
CC(OC(=O)Cc1n[nH]c(=O)c2ccccc12)C(=O)Nc1ccccc1[N+](=O)[O-] (stereo not drawn)
 : i	0.24
O=C(C[n+]1ccc2ccccc2c1)Nc1cc(C(F)(F)F)ccc1Cl
 : i	0.9
Cc1ccc(C(=O)N/C(=C\c2cccs2)C(=O)NCc2ccncc2)cc1
 : i	1.5
NC(=O)[C@@H]1CCCN1C(=O)c1ccc2oc(CCc3ccccc3)nc2c1
 : i	-0.1
S=C(NCCc1ccccn1)Nc1ccc(Cl)c(Cl)c1
 : i	1.6
O=C(O)c1ccc(N2CC3CC(C2)c2cccc(=O)n2C3)c(NC(=S)Nc2ccc(Cl)cc2Cl)c1 (stereo not drawn)
 : i	-1.7
O=C(COC(=O)c1c(Cl)cccc1Cl)NCC1CCCO1 (stereo not drawn)
 : i	1.8
O=C(COC(=O)c1cc(=O)[nH]c2ccccc12)c1cccs1
 : i	3
COc1ccccc1NC(=O)NNC(=O)c1cc2ccccc2cc1O
 : i	1.2
CCOC(=O)c1c(OCC)[nH]c2c1cc(O)c1ccccc12
 : i	-1.3
Cn1c(=O)c2c(nc(CN3CCN(c4cccc(Cl)c4)CC3)n2CCc2ccccc2)n(C)c1=O
 : i	-1.6
CN(C)C1(CNC(=O)C2CCC(=O)N(CCc3ccc(Cl)cc3)C2)CCCCC1 (stereo not drawn)
 : i	-1.1
O=c1ccc(Cl)cn1Cc1ccccc1F
 : i	-1.7
C/C=C/Cn1c(SCc2ccc(C)cc2)nc2c1c(=O)[nH]c(=O)n2C
 : i	1.5
CCn1c(CNC(=O)COc2ccc(C(C)C)cc2)nnc1SCC(=O)Nc1ccccc1F
 : i	1.2
COc1cc(/C(C#N)=C/c2cccc3ccccc23)c([N+](=O)[O-])cc1OC
 : i	0.41
CCc1ccc(NC(=S)N2CCN(C)CC2)cc1
 : i	-1
CC1Cc2ccccc2N1C(=O)COC(=O)Cn1cnc2ccccc2c1=O (stereo not drawn)
 : i	0.6
COc1ccccc1CC(NC(C)=O)C(=O)NC1CCN(S(=O)(=O)c2ccccc2)CC1 (stereo not drawn)
 : i	-1
CC(C)(C)N1C(=O)c2ccc(C(=O)NCc3ccco3)cc2C1=O
 : i	-1.2
COc1ccc2c(c1)C(C)=CC(C)(C)N2S(=O)(=O)c1ccc(C)cc1
 : i	0.94
CCOc1ccccc1NC(=O)c1ccccc1-c1nc(-c2ccccc2OC)no1
 : i	-0.51
COCCCNc1nc2c(-c3ccc(Cl)cc3)nnn2c2ccccc12
 : i	-0.14
COc1ccc(S(=O)(=O)N2CCN(C(=S)NC3CCCCC3)CC2)cc1
 : i	0.26
CC(C)N(Cc1ccccc1)C(=O)CN1C(=O)COc2ccc(S(=O)(=O)N3CCCCCC3)cc21
 : i	-1.1
Cc1c(Br)c([N+](=O)[O-])nn1CCCC(=O)N1CCN(c2ccccc2)CC1
 : i	0.66
COc1ccc(CC(=O)N/N=C(\C)CC(=O)Nc2ccc(N(C)C)cc2)cc1
 : i	-0.83
Cc1cccc(Cn2ccc(NC(=O)c3ccc4c(c3)OCO4)n2)c1
 : i	-0.15
Cc1ccc2nc(-c3cccnc3SCC(=O)N3c4ccccc4CC3C)[nH]c2c1 (stereo not drawn)
 : i	-1.7
COc1ccc(CN2CCN(C(=O)Cn3c(=O)oc4cc(Cl)ccc43)CC2)c(OC)c1OC
 : i	0.11
CCCN(CCC)C(=O)c1cc(-c2ccc3c(c2)OCO3)nc2ccccc12
 : -8.5*	0.55*
CCc1ccccc1N(CC)C(=O)C1CCN(c2ncnc3c2nc2n3CCCCC2)CC1
 : i	-0.61
CCCCN1C(=O)C(=O)N(CC(=O)Nc2ccccc2C(=O)OCC)C1=O
 : i	1
CCc1cccc(CC)c1-n1c(-c2cccnc2)n[nH]c1=S
 : i	0.32
CCOc1ccc(C2C(C(=O)c3ccco3)=C(O)C(=O)N2CCCn2ccnc2)cc1OC (stereo not drawn)
 : i	-0.89
C/C(=N\NC(=O)CNc1cccc(C)c1)c1ccc(Br)s1
 : i	0.43
Cc1ccc(NC(=O)CN2C(=O)/C(=C\c3cccs3)SC2=S)cc1
 : i	1.1
O=C(NCC1CCCO1)c1ccc2c(c1)ncn2-c1cccc(F)c1 (stereo not drawn)
 : i	-0.1
COc1ccc(C(=O)C(OC(=O)c2ccc(C)c(NC(C)=O)c2)c2ccccc2)cc1 (stereo not drawn)
 : i	0.55
COc1ccc(C(O)CNc2ccc(C)cc2)cc1 (stereo not drawn)
 : i	-0.22
O=C(NC(Cc1c[nH]c2ccccc12)C(=O)O)/C(=C/c1ccc(F)cc1)NC(=O)c1ccccc1 (stereo not drawn)
 : i	0.17
O=C(O)CC1(CC(=O)Nc2ccc3sccc3c2)CCCCC1
 : i	-1.4
COc1cc(/C=C/C(=O)O)cc(S(=O)(=O)NCc2ccco2)c1OC
 : i	2.2
COc1ccc(CCNC(=O)c2c([S-])n(-c3ccc(C)cc3)c3cccc[n+]23)cc1
 : i	-1.7
COc1cccc(CNC(=O)CC2C(=O)NCCN2CCCc2ccccc2)c1 (stereo not drawn)
 : i	0.32
CCOCCCNC(=O)C(c1ccc(C)cc1)N(Cc1cccs1)C(=O)c1ccccn1 (stereo not drawn)
 : i	-0.01
CCOC(=O)c1c(NC(=O)C[n+]2ccc(N(C)C)cc2)sc(C)c1C
 : i	-1.5
O=C(O)c1cc(S(=O)(=O)Nc2ccc3oc(=O)sc3c2)ccc1O
 : i	-1.2

Carrying on:
Each structure is followed by: KCNQ2 block	KCNQ2 block baseline
O=C1NCCCC1C(=O)N1CCCCC1 (stereo not drawn)
 : i	0.99
COc1ccc(C(=O)n2nc(-c3ccco3)nc2N)cc1
 : i	-0.27
CC(C)Oc1ccc(CNCCC2(C(C)C)CCOC(C)(C)C2)cc1 (stereo not drawn)
 : i	0.08
Cc1cc(C=O)c(C)n1-c1ccc(N2CCCC2)c([N+](=O)[O-])c1
 : i	-0.69
CC1(C)C2CCC1(CS(=O)(=O)NCc1ccc(Cl)cc1Cl)C(=O)C2 (stereo not drawn)
 : -5.9*	-0.51*
O=C(NC(=S)NC(CO)c1ccccc1)c1ccc(F)cc1 (stereo not drawn)
 : i	-1.8
Cc1onc(-c2c(F)cccc2Cl)c1C(=O)NC(=S)NC1CCSC1=O (stereo not drawn)
 : i	0.07
COc1cnn(Cc2ccccc2)c(=O)c1SCc1ccccc1
 : i	-1.3
CCOC(=O)c1nnn(-c2nonc2OC)c1-c1ccccc1
 : i	-1.1
O=C(Cc1c[nH]c2ccccc12)N[C@@H](Cc1c[nH]c2ccccc12)C(=O)O
 : i	1.1
CC(NC(=O)COC(=O)/C(=C/c1cccs1)c1cccs1)c1ccccc1 (stereo not drawn)
 : i	0.78
COc1ccccc1OCc1nc(C#N)c(NCCCn2ccnc2)o1
 : i	1.4
CCOC(=O)C1CCN(C(=O)N2CCOCC2)CC1
 : i	1
Cn1nc(C(F)(F)F)c(C#N)c1N1CCN(c2ccccn2)CC1
 : i	1.2
COc1ccc(CC2(CO)CCN(Cc3cccnc3)CC2)cc1
 : i	-1.1
CNC(=S)N1CCN(c2c(F)cc3c(=O)c(C(=O)O)cn(C4CC4)c3c2OC)CC1C (stereo not drawn)
 : i	0.24
COc1cccc(/C=N/NC(=O)CSc2cccc3cccnc23)c1
 : i	1
COCCCN(Cc1ccco1)C(=O)c1cc2c(s1)-c1ccc(Cl)cc1S(=O)(=O)C2
 : i	-2.2
COC(=O)C1=C(C)NC(C)=C(C(=O)OCC2CCCO2)C1c1cccc(Cl)c1 (stereo not drawn)
 : i	-0.29
CCCc1nc2oc3ccccc3c(=O)c2c(=O)n1-c1ccc(C)cc1
 : i	0.17

Bioassay records (PubChem BioAssay)
